# Screening data deposited in PubChem BioAssay by Broad Institute.
# MLL AF4-AF9 inh – inhibitors of AF4 peptide binding to AF9, primary screen, biochemical, AlphaScreen, biotin-AF4 peptide, FLAG-AF9, single point | 0.47% of 350,000 active | AID 651704, 2012 | inhibition, % at 10 µM | Protein AF-9 (Homo sapiens), P42568;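 active = every replicate reaching a set inhibition limit, whatever the replicate mean, cut at about 25% in these data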;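 note: 0% = plate neutral control median and 100% = total signal loss; the record names both 10 and 1 µM as test concentration; the first replicate is given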
# Target sequence (P42568 whole entry, looked up): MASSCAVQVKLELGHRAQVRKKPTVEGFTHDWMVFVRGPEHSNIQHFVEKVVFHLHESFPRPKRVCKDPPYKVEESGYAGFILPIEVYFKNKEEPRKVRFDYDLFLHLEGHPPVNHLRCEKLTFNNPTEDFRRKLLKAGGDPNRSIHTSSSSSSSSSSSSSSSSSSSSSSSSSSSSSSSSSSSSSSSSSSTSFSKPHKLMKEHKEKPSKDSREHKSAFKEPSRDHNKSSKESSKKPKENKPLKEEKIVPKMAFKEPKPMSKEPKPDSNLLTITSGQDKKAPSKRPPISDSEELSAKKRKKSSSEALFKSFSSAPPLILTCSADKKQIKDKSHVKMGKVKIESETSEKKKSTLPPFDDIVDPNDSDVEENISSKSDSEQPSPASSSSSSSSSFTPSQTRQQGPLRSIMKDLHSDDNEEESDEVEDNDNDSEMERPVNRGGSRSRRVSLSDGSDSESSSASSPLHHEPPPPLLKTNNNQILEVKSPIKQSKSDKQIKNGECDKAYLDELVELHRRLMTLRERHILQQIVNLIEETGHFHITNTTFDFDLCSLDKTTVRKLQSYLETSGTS
# Numbers without * were called inactive; & = joins results of further samples. Only part of the results is shown; the hit share may differ from the screen's.
MLL AF4-AF9 inh | molecule
-0.9 | C[C@H]1CN([C@@H](C)CO)C(=O)c2cc(C#CC3(O)CCCC3)cnc2O[C@H]1CN(C)C(=O)Cc1ccncc1
16 | C[C@H](CO)N1C[C@H](C)[C@@H](CN(C)Cc2cncnc2)Oc2cc(/C=C/c3ccccc3)ccc2S1(=O)=O
-0.7 | Cc1cccc(S(=O)(=O)N[C@H]2CC[C@@H](CCNC(=O)CCN3CCCCC3)O[C@@H]2CO)c1
-1.4 | C[C@H](CO)N1C[C@H](C)[C@@H](CN(C)C)Oc2ccc(NC(=O)Nc3ccccc3)cc2C1=O
1.7 | Cc1ccc(-c2csc(C(O)c3cccc(Cl)c3)n2)cc1C (centres undefined)
-0.7 | COc1ccc(-c2cnc3c(c2)C(=O)N([C@H](C)CO)C[C@H](C)[C@H](CN(C)C(=O)NC2CCCCC2)O3)cc1
-1.3 | O=S(=O)(NCC[C@@H]1CC[C@@H](NS(=O)(=O)c2ccccc2Cl)[C@H](CO)O1)c1ccc(Cl)cc1
-3.7 | CCCNC(=O)C1(C)CCN(C(=O)c2cccc(OC(F)(F)F)c2)C1 (centres undefined)
-0.3 | CS(=O)(=O)N1CC(=O)N2[C@H](C1)[C@H](c1ccc(C#Cc3ccc(F)cc3)cc1)[C@@H]2CO
-0.6&1.1 | COc1ccc(NC(=O)N(C)C[C@@H]2OCc3cnnn3CCCC(=O)N([C@@H](C)CO)C[C@H]2C)cc1
-4.8 | C[C@@H]1CCCCO[C@H](CN(C)C(=O)CCC(F)(F)F)[C@@H](C)CN([C@H](C)CO)C(=O)c2cc(NS(=O)(=O)c3ccc(Cl)cc3)ccc2O1
-0.9 | CC1(Oc2cnc(Cl)c3ccccc23)CCN(Cc2ccc(OC(F)(F)F)cc2)C1 (centres undefined)
-5.7 | C[C@@H]1CCCCO[C@H](CN(C)Cc2ccc(C(F)(F)F)cc2)[C@@H](C)CN([C@H](C)CO)C(=O)c2cc(NS(=O)(=O)c3ccc(Cl)cc3)ccc2O1
8.5 | O=C(C[C@H]1CC[C@H](NS(=O)(=O)c2cccc(F)c2)[C@@H](CO)O1)NCc1ccc2c(c1)OCO2
-3.1 | COCC(=O)Nc1ccc2c(c1)C(=O)N(C)C[C@H](OC)[C@H](C)CN(C(=O)C1CCCC1)[C@@H](C)CO2
-4.2 | Cc1cc(Br)cn2c(Cc3ccccc3C(F)(F)F)c(-c3cccc(Br)c3)nc12
-4.0 | COc1ccccc1-c1cnc2c(c1)C(=O)N([C@@H](C)CO)C[C@H](C)[C@@H](CN(C)C(=O)CC1CC1)O2
-1.6 | Cc1ccc(S(=O)(=O)N(C)C[C@H]2Oc3ncc(C#CCC(C)C)cc3C(=O)N([C@H](C)CO)C[C@@H]2C)cc1
-1.6 | C[C@H]1CN([C@@H](C)CO)C(=O)c2cc(NS(=O)(=O)c3cccs3)ccc2O[C@@H]1CN(C)Cc1ccc(C(=O)O)cc1
-0.3 | COc1ccc(CNC(=O)C[C@H]2CC[C@H]3[C@H](COc4ccc(NC(C)=O)cc4C(=O)N3C)O2)cc1
-5.2 | Cc1ccc(-c2ccc3c(c2)O[C@H](CN(C)Cc2ccncc2)[C@H](C)CN([C@@H](C)CO)S3(=O)=O)cc1
0.9 | C[C@@H]1CN([C@@H](C)CO)C(=O)c2cc(NC(=O)Cc3cn(C)c4ccccc34)ccc2O[C@@H]1CN(C)Cc1ccc(C(F)(F)F)cc1
0.9 | CO[C@@H]1CN(C)C(=O)c2cc(NC(C)=O)ccc2OC[C@@H](C)N(S(=O)(=O)c2cn(C)cn2)C[C@@H]1C
2.0 | CO[C@H]1CC[C@@H]2CCOc3ccc(C#N)cc3C(=O)N(C)C[C@H](OC)[C@@H](C)C(=O)N(C)C[C@@H]1O2
-4.0 | Cc1ccc(S(=O)(=O)Nc2ccc3c(c2)C(=O)N([C@@H](C)CO)C[C@H](C)[C@@H](CN(C)C(=O)Nc2ccc(F)cc2)O3)cc1
5.6 | O=S(=O)(c1ccccc1)N1CCCCN2[C@H](CO)[C@H](c3ccc(C#CC4CCCC4)cc3)[C@@H]2C1
-7.8 | O=C(C[C@@H]1C[C@H]2c3cc(NC(=O)C4CCOCC4)ccc3O[C@H]2[C@@H](CO)O1)NCc1cccc(F)c1
11 | C[C@@H]1CN([C@@H](C)CO)C(=O)c2cc(NC(=O)CCN3CCOCC3)ccc2O[C@@H]1CN(C)Cc1ccc(Oc2ccccc2)cc1
22 | COc1ccc2c3c(n(C)c2c1)[C@H](CO)N(C(=O)C1CC1)CC31CN(Cc2cccc(F)c2)C1
0.5 | C=C1CCCC2OC(CC3=CC4/C(C)=C/CC(C)CC(/C=C(\C)C(O)C5CC(O)C(O)C(CCC(O)/C=C/C(C)=C/CCC6=NCCC(C3)C64C)O5)OC(=O)CC3OC(C(O)C1)C(O)C3O)CC(O)C2O (centres undefined)
5.8 | COc1ccc(CN(C)C[C@H]2Oc3ccc(NC(=O)Nc4ccc(OC)cc4)cc3C(=O)N([C@@H](C)CO)C[C@H]2C)cc1
-2.1 | CCCNC(=O)[C@H]1[C@H](CO)[C@H]2Cn3c(ccc(C4=CCCC4)c3=O)[C@H]2N1CCC
0.5 | COc1ccc(CN2CCC2(C)C(=O)NCCNC(C)=O)c2ccccc12 (centres undefined)
6.6 | C[C@H]1CN([C@@H](C)CO)S(=O)(=O)c2ccc(-c3ccncc3)cc2O[C@@H]1CN(C)C(=O)Nc1ccc(F)cc1
1.6 | CCCNC(=O)Nc1ccc2c(c1)OC[C@@H](C)N(Cc1ccc(-c3ccccn3)cc1)C[C@@H](C)[C@@H](OC)CN(C)C2=O
0.0 | COc1ccc(-c2cnc3c(c2)C(=O)N([C@H](C)CO)C[C@@H](C)[C@@H](CN(C)C(=O)Nc2c(C)noc2C)O3)cc1
-0.2 | CO[C@@H]1CN(C)C(=O)c2ccc(NC(=O)c3ccc(F)cc3)cc2OC[C@H](C)N(C(C)=O)C[C@@H]1C
3.4 | O=C(C[C@H]1C=C[C@H](NC(=O)CCN2CCCCC2)[C@H](CO)O1)Nc1ccc(-c2ccccc2)cc1
4.9 | C[C@@H]1CN([C@H](C)CO)C(=O)CCCn2nncc2CO[C@@H]1CN(C)Cc1ccc(C(=O)Nc2ccccc2N)cc1
11 | COc1ccc2c3c([nH]c2c1)[C@H](CO)N(C(=O)Nc1ccc(F)cc1)CC31CCN(CC2CCOCC2)CC1
-1.0 | C[C@H](CO)N1C[C@H](C)[C@@H](CN(C)C(=O)Nc2ccc(C(F)(F)F)cc2)OCCCC[C@H](C)Oc2ccc(NC(=O)CCC(F)(F)F)cc2C1=O
-0.8 | C[C@@H]1CN([C@@H](C)CO)C(=O)c2cccc(NS(=O)(=O)c3ccc(Cl)cc3)c2O[C@@H]1CN(C)Cc1ccc(Cl)c(Cl)c1
0.2 | O=C([C@H]1[C@H](CO)[C@H]2Cn3c(cccc3=O)[C@@H]1N2Cc1cccc(Cl)c1)N1CCCCC1
-4.3 | CC(C)NC(=O)Nc1ccc2c(c1)C(=O)N([C@H](C)CO)C[C@H](C)[C@@H](CN(C)C(=O)Nc1ccc3c(c1)OCO3)OCCCC[C@@H](C)O2
1.3 | COc1ccc(-c2cnc3c(c2)C(=O)N([C@@H](C)CO)C[C@H](C)[C@@H](CN(C)C(=O)NC2CCCC2)O3)cc1
0.6 | COc1ccc(NC(=O)Nc2ccc3c(c2)[C@@H]2C[C@@H](CC(=O)NCc4ccncc4)O[C@H](CO)[C@@H]2O3)cc1
-1.0 | CC(C)NC(=O)N(C)C[C@@H]1Oc2ccc(NC(=O)NC3CCCCC3)cc2C(=O)N([C@@H](C)CO)C[C@@H]1C
-0.6 | N#C[C@H]1[C@@H](c2ccccc2C2=CCCCC2)[C@H](CO)N1C(=O)C1CCOCC1
-1.4 | CCC(=O)N1[C@H](CN(C)C(C)=O)[C@H](c2ccc(C3=CCCCC3)cc2)[C@@H]1CO
-13 | CNC[C@@H]1OCCCC[C@@H](C)Oc2ccc(NS(=O)(=O)c3ccc(F)cc3)cc2C(=O)N([C@@H](C)CO)C[C@H]1C
3.2 | C[C@H](O)[C@@H]1CN2CCc3c([nH]c4ccc(-c5ccc6c(c5)OCO6)cc34)[C@@H]2C[C@@H]1N(C)C(=O)Nc1ccc(F)cc1
-1.0 | CO[C@@H](CN(C)C(=O)c1ccccc1F)[C@@H](C)CN([C@H](C)CO)S(=O)(=O)c1ccc(F)cc1
-8.5 | CC(C)C[C@H]1CN(CCCC[C@@H]2CNC(=O)C(=O)N2CCc2ccccc2)C(=O)C(=O)N1CCC1CCCCC1
5.2 | CN(CC(=O)Nc1ccc(F)c(F)c1F)C(=O)c1cc(S(=O)(=O)N(C)C)ccc1N1CCCC1
-0.6 | N#C[C@H]1[C@@H](c2ccccc2)[C@@H](CO)N1S(=O)(=O)c1cccc(F)c1
-1.0 | Cc1ccc(S(=O)(=O)Nc2ccc3c(c2)CC(=O)N([C@@H](C)CO)C[C@H](C)[C@@H](CN(C)Cc2ccc(Oc4ccccc4)cc2)O3)cc1

# Next section.
MLL AF4-AF9 inh | molecule
6.8 | CC(C)NC(=O)Nc1cccc2c1O[C@@H](CN(C)Cc1ccc(Oc3ccccc3)cc1)[C@H](C)CN([C@H](C)CO)C2=O
0.0 | COC(=O)N1CCCCC1c1cc(C(=O)Nc2ccc3c(c2)OCO3)no1 (centres undefined)
0.3 | CN(C[C@H]1N[C@@H](CO)[C@@H]1c1ccc(C2=CCCC2)cc1)C(=O)c1ccccn1
0.9 | OC(c1ccccc1)(c1nc(-c2ccc3c(c2)OCO3)cs1)C(F)(F)F (centres undefined)
-1.7 | CC(C)NC(=O)Nc1ccc2c(c1)C(=O)N([C@@H](C)CO)C[C@H](C)[C@@H](CN(C)C(=O)c1ccncc1)OCCCC[C@H](C)O2
-3.1 | COCC(=O)Nc1ccc2c(c1)C(=O)N(C)[C@@H]1CC[C@H](CC(=O)NCCc3ccccc3)O[C@@H]1CO2
-0.6 | OC(c1ccco1)c1nc(-c2cccs2)cs1 (centres undefined)
-2.4 | C#CCOCCOCCOCCNc1nc(N2CCOCC2)nc(N2CCN(C(=O)Cn3cc(CCCCN)nn3)CC2)n1
-1.2 | C[C@@H]1CN([C@H](C)CO)C(=O)c2cc(C3=CCCCC3)cnc2O[C@@H]1CN(C)Cc1cccnc1
4.9 | COc1ccc2c3c(n(C)c2c1)[C@@H](CO)NCC31CN(Cc2cc(-c3ccccc3)on2)C1
-0.6 | C[C@H](NC(=O)C[C@H]1CC[C@@H](NC(=O)Cc2ccccn2)[C@@H](CO)O1)c1ccccc1
-2.1 | CCN1[C@@H]2c3ccc(-c4cccc(F)c4)c(=O)n3C[C@@H]2[C@@H](CO)[C@@H]1C(=O)NCCCN(C)C
0.4 | C[C@@H]1CN([C@H](C)CO)C(=O)c2cc(NC(=O)Nc3ccccc3)ccc2O[C@H]1CN(C)CC1CCCCC1
4.1 | Cc1noc(C)c1S(=O)(=O)N(C)C[C@@H]1Oc2ccc(NS(=O)(=O)c3cccs3)cc2C(=O)N([C@H](C)CO)C[C@@H]1C
0.6 | O=C(Cc1cccnc1)N1CC2(C1)[C@H](c1ccccc1)[C@H](CO)N2C(=O)C1CCC1
-2.2 | CC(=O)N(C)C[C@@H]1Oc2cc(-c3ccccc3F)ccc2S(=O)(=O)N([C@H](C)CO)C[C@@H]1C
-1.0 | COc1ccc(CN(C)C[C@@H]2OCCCC[C@@H](C)Oc3ccc(NS(C)(=O)=O)cc3C(=O)N([C@@H](C)CO)C[C@@H]2C)cc1
-1.6 | CC1=C(C(=O)N(C(C)C)C(C)C)CC(CC(=O)NCCCN(C)C)C(=O)N1Cc1ccccc1 (centres undefined)
3.5 | C[C@@H]1CCCCO[C@@H](CN(C)CC2CCCCC2)[C@@H](C)CN([C@@H](C)CO)C(=O)c2cc(NC(=O)CCCN(C)C)ccc2O1
-1.1 | C[C@@H]1CN([C@H](C)CO)C(=O)CCCn2nncc2CO[C@@H]1CN(C)S(=O)(=O)c1ccc(Oc2ccccc2)nc1
-2.1 | Cc1ccc(S(=O)(=O)N(C)C[C@@H]2Oc3c(NC(=O)CCCCCC(=O)Nc4ccccc4N)cccc3C(=O)N([C@@H](C)CO)C[C@H]2C)cc1
0.6 | C[C@H](CO)N1C[C@H](C)[C@@H](CN(C)C(=O)Nc2ccc(C(F)(F)F)cc2)Oc2ncc(C#C[C@@H](C)O)cc2C1=O
-4.3 | O=C(Nc1cc(F)ccc1F)N[C@H]1CC[C@H](CC(=O)N2CCc3ccccc3C2)O[C@@H]1CO
-3.2 | COCC#Cc1cnc2c(c1)C(=O)N([C@@H](C)CO)C[C@H](C)[C@@H](CN(C)C(=O)Cc1cccnc1)O2
